Assay outcomes: PubChem, PCMD
Biofilm kill mix: clotrimazole potentiators killing C. albicans biofilm, primary screen, 4-compound mixtures; C. albicans biofilm persisters + clotrimazole, fluorescence viability; primary screen in compound mixtures of four per well; inhibition, % at 7.6 µM; 120,000 compounds, 0.02% hits;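 active = inhibition above 30.3% in the primary screen of four-compound pools, then above 30% when the compound was retested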;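 note: compounds exposed to preformed 24 h biofilms for 48 h; the number belongs to the whole pool; some results filed as inactive read as strong as hits; inactives centre near 12; 0% = biofilm with clotrimazole alone and 100% = kill control; retested singly at about 60 µM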
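System: C. albicans CAF4-2 wild-type biofilms; Medium: RPMI/MOPS medium, pH 7.0; Reagent: Clotrimazole, 50 µg/mL; Times: biofilm formation 24 h, compound exposure 48 h, 37 °C; Detection: 2-h Alamar Blue fluorescence, 535/590 nm excitation/emission; Evaluation: percent inhibition of biofilm viability.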
Numbers without * were called inactive. Some of the compounds tested (hit frequency here may not be typical).

Molecule | Biofilm kill mix
O=C(CCN1C(=O)c2ccccc2C1=O)C1=NN[C@@H]2C(=O)N(c3ccc(F)cc3)C(=O)[C@H]12 | 18
NC(=O)Cn1c(=O)n(CCC(=O)NCCSCc2ccccc2)c(=O)c2ccccc21 | 15
COc1cc(/C(C)=N\NC(=O)CSc2nc3ccccc3n2C)ccc1O | 26
COc1cc(/C=C2\N=C(c3ccccc3)NNC2=O)cc(OC)c1OC | 29
Cc1cccn2c(=O)c(/C=N/O)c(NCc3ccccc3)nc12 | 15
COc1ccc(S(=O)(=O)N(C(=O)c2ccncc2)c2ccc(OC(=O)c3ccncc3)cc2)cc1 | 12
C/C(=N/Nc1ncc(C(F)(F)F)cc1Cl)c1ccncc1 | 11
COc1ccc(NC(=O)C2CCN(c3nc(C)nc4c3CCC4)CC2)cc1 | 10
O=C(O)COc1ccc(F)cc1Br | 21
CCOC(=O)C1CCN(C(=O)COc2ccc(Br)cc2C)CC1 | 16
O=S(=O)(c1ccc(NC(=S)NN=C(Cc2ccccc2)Cc2ccccc2)cc1)N1CCOCC1 | 25
CCC(=O)NNc1ncnc2c1cnn2C | 13
O=C(Cc1n[nH]c(=O)c2ccccc12)OCc1c(Cl)cccc1Cl | 4
COC(=O)Cn1c(=NC(=O)c2cc(OC)c(OC)c(OC)c2)sc2cc(OC)ccc21 | 13
CC1=CC2=NC(=O)/C(=C\c3cc(C)n(-c4ccccc4)c3C)C(=N)N2O1 | 1
CC(=O)N1c2ccccc2N2C(c3c(C)c(C)cc(C)c3C)=NON12 | 4
COc1ccc(S(=O)(=O)NC2CC(C)(C)NC(C)(C)C2)cc1C(C)C | 11
CCCCOc1ccc(/C=C/C(=O)OCC(=O)c2c(N)n(C)c(=O)n(C)c2=O)cc1OCC | 10
O=C(O)c1cc2ccc3ccccc3c2oc1=O | 8
Cc1nc(-c2ccc(C#N)cc2)cs1 | 18
COC(=O)Nc1nnc(COc2ccccc2)s1 | 32
O=C(Oc1cc(Cl)cc(Cl)c1)c1cnc2n(c1=O)CCS2 | 19
CCN(c1ccccc1)S(=O)(=O)c1ccc(OC)c(NC(=O)C2CC(=O)N(Cc3ccccc3)C2)c1 (centres undefined) | 15
Cc1cc(Cl)ccc1NC(=S)N1CCOCC1 | 26
CCN(CC)CCCN(Cc1cc2cc3c(cc2[nH]c1=O)OCO3)C(=S)NCc1ccco1 | 11

Some of the entries so far, with each value named:
CCOC(=O)C1CCN(C(=O)COc2ccc(Br)cc2C)CC1
  Biofilm kill mix = 16

O=S(=O)(c1ccc(NC(=S)NN=C(Cc2ccccc2)Cc2ccccc2)cc1)N1CCOCC1
  Biofilm kill mix = 25

CCC(=O)NNc1ncnc2c1cnn2C
  Biofilm kill mix = 13

O=C(Cc1n[nH]c(=O)c2ccccc12)OCc1c(Cl)cccc1Cl
  Biofilm kill mix = 4

More results.
Molecule | Biofilm kill mix
Cc1cc(C=NCCCO)c(C)n1-c1cc(Cl)ccc1Cl | 12
O=C(NNC(=S)NCc1ccccc1)c1cccc([N+](=O)[O-])c1 | 1
O=C(COC(=O)c1ccc([N+](=O)[O-])s1)NCc1ccc(F)cc1 | 7
CC(/C=C/c1ccc2c(c1)OCO2)=N/NC(=O)COc1ccc(C)cc1 | 16
CC(=O)c1ccc(NC(=O)CN2C(=O)/C(=C/C=C/c3ccccc3)SC2=S)cc1 | 8
Cc1cc(N)n(-c2ccccc2C)n1 | 21
Cc1csc2c(N3CCN(C(=O)c4ccc(C(C)(C)C)cc4)CC3)ncnc12 | 27
Cc1ccsc1/C=N\NC(=O)Cn1nnc2ccccc21 | 21
CCOC(=O)CNC(=O)CSc1nnc(-c2ccc(OC)cc2)n1CC | 9
COC(=O)CCCCCCCCC(O)CN(C)C (centres undefined) | -1
CC(=O)c1sc(NC(=O)COc2ccc(C(C)C)c(C)c2)nc1C | 10
O=C(Nc1cccc([N+](=O)[O-])c1)N1CCN(c2ccccc2)CC1 | 5
COc1ccc(NC(=O)C2=C(C)NC(=O)NC2c2ccccc2[N+](=O)[O-])cc1 (centres undefined) | 14
O=C(c1ccccc1)C1CCN(C(=O)c2cccs2)CC1 | 24
CCS(=O)(=O)N1CCN(CC(=O)NC2CCCCC2)CC1 | 27
Cc1ccc2c(c1)nnn2C1CCN(S(=O)(=O)c2ccc3ccccc3c2)CC1 | 10
CO/N=C/C(=N\Nc1ccccc1)C(=O)c1ccccc1 | -1
Cc1ccc(S(=O)(=O)N2CCC[C@H]2C(=O)OCC(=O)c2ccc3c(c2)NC(=O)CO3)cc1 | 27
COc1cc2c(cc1OC)[C@H](C)N(C(=S)Nc1ccc(F)cc1)CC2 | 12
CCOC(=O)c1ccc(NC(=O)Cn2nnc(-c3ccccc3F)n2)cc1 | -7
Cn1c(=O)c2[nH]c(N3CCN(c4cccc(O)c4)CC3)nc2n(C)c1=O | 13
O=C(CSc1ccc(-c2cccc([N+](=O)[O-])c2)nn1)NCc1ccccc1 | 8
COc1ccc(-c2noc(C3CCCN(C(=O)Nc4ccccc4)C3)n2)cc1 (centres undefined) | 26
Nc1ccc(N=Nc2ccccc2)c(N)n1 | 18
CCOC(=O)NC(=O)/C(N=Nc1cccc(C(F)(F)F)c1)=C(\C)O | 17
Cc1cccc(-n2c3nc(=O)[nH]c(=O)c-3cc3c(C)nn(-c4ccccc4)c32)c1 | 6
CC(=O)/C=C1/C(=O)Nc2ccccc21 | 18
Cc1ccc(NC(=O)CC2C(=O)N(Cc3ccccc3)C(=S)N2NC(=O)c2ccccc2)c(C)c1 (centres undefined) | 9
CN1CCN(C(=S)Nc2cc([N+](=O)[O-])ccc2Cl)CC1 | -6
Cc1ccc(-n2nnnc2C(Cl)c2nnnn2-c2ccc(C)cc2)cc1 | 19
CC(=O)Nc1ccc(NC(=O)Cc2sc(C)nc2-c2ccc(C)cc2)cc1 | 17
C=C1C(C(=O)Nc2ccc(F)cc2)C1C(=O)Nc1ccc(F)cc1 (centres undefined) | 19
COCCCNS(=O)(=O)c1ccc2[nH]c(=O)[nH]c2c1 | 14
CCOC(=O)C(NC(C)=O)(OCc1ccccc1)C(F)(F)F (centres undefined) | 11
O=C(CC12CC3CC(CC(Br)(C3)C1)C2)OCCN1CCCCC1 | 11
COc1ccc(N2CCN(C(=O)CCc3ccc(S(=O)(=O)NC(C)C)cc3)CC2)cc1 | 6
C/C=C\C=C\C(=O)N1CC2(CC(c3cccc(NC(=O)COc4ccc(Cl)cc4)c3)=NO2)C[C@H]1C(N)=O (some centres undefined) | 18
Cn1nnnc1SCCNCc1ccccc1OCc1ccccc1Cl | 13
Cc1ccc(NC(=O)c2cccc(S(C)(=O)=O)c2)cc1 | 7
COc1ccccc1CNC(=O)CCSCc1cccc(Cl)c1 | 13
CC(C)=N/N=C1\NC(=O)C(C)S1 (centres undefined) | 22
N=C1/C(=C\c2ccc(-c3cccc(Cl)c3)o2)C(=O)N=C2SC=C(c3ccccc3)N12 | 17
CC(C)CN1CCC(C(=O)N2CCN(c3ccccc3F)CC2)CC1 | 12
Cc1cccc(CSCCNC(=O)CN(c2cc(C)cc(C)c2)S(C)(=O)=O)c1 | 31
Cc1cc(NC(=O)C(=O)c2c(C)[nH]c3ccccc23)no1 | 13
COc1cc(NS(=O)(=O)c2ccc(N)cc2)ncn1 | 7
Cc1cc(C)nc(NC(=O)Cc2ccc([N+](=O)[O-])cc2)c1 | 6
CCOC(=O)C(C)Sc1ncnc2nc[nH]c12 (centres undefined) | 18
Cc1nc(Oc2ccccc2)c2ccsc2n1 | 5
CCCCCCNC(=O)c1ncn[nH]1 | 15

Next part.
Molecule | Biofilm kill mix
C(=N/Nc1nc(-c2ccccc2)cc(-c2ccccc2)n1)/c1cccnc1 | 23
CC/C(O)=C1\C(=O)CC(C)(C)CC1=Nc1ccccc1C | 16
Cc1ccc(NC(=O)COc2ccc(-c3nnco3)cc2)cc1S(=O)(=O)N1CCOCC1 | 14
CC(Sc1nc2scc(-c3ccccc3)c2c(=O)[nH]1)C(=O)NC(N)=O (centres undefined) | 19
O=C(COC(=O)/C=C/c1cn(-c2ccccc2)nc1-c1cccnc1)Nc1ccc(Cl)cc1Cl | 25
C=CCn1c(SCC(=O)NCc2ccc3c(c2)OCO3)nnc1-c1cccnc1 | 11
CC1(C)CC(=O)c2cnc3nc4ccccc4n3c2C1 | 6
COc1ccc(/C=C/C(=O)NC(=S)NNC(=O)c2c(-c3ccccc3)noc2C)cc1 | 11
Nc1ncc(Br)cc1N=Cc1ccccc1 | 7
COC(=O)c1ccc(NC(=S)NCc2ccco2)cc1 | 9
Cc1ccccc1S(=O)(=O)Nc1ncc(C(F)(F)F)cc1Cl | 11
Cn1c(SC/C=C/c2ccccc2)nnc1-c1cccs1 | 15
CC(C)Nc1nc(NC(C)C)nc(OCCOC(=O)c2ccccc2)n1 | 13
COC(=O)c1ccc(N=NN2CCCCC2)cc1 | 29
CCOC(=O)Cc1ccc(NC(=O)c2cccc([N+](=O)[O-])c2)cc1 | 29
CCN(CC)CC#CCC(OC)(c1ccccc1)c1ccccc1 | 17
CCOc1ccc(NC(=S)N(CCc2ccncc2)C(C)C)cc1 | 15
COC(=O)C(NC(C)=O)(Nc1ccc(C)cn1)C(F)(F)F (centres undefined) | 12
COC(=O)C(=C/C=C/c1ccco1)C(=O)OC | 12
NCCCC[C@H](NC(=O)C1CCNCC1)c1nnc(CN)o1 | 17
C/C(=N\OCC(=O)Nc1ccc(OC(F)(F)F)cc1)c1ccc2c(c1)OCCO2 | 7
CC1=C(C(=O)OC(C)C)C(c2ccsc2)NC(=O)N1C (centres undefined) | 13
O=C(/C=C/c1cccs1)N1CCN(c2ccccc2)CC1 | 9
Cn1nnnc1SCCNCc1ccccc1OCc1ccc(Cl)cc1 | 5
Cc1ccc(C)c(NC(=O)COC(=O)CNC(=O)c2ccccc2Cl)c1 | 3

A second format for part of the listing above:
> CC(Sc1nc2scc(-c3ccccc3)c2c(=O)[nH]1)C(=O)NC(N)=O (centres undefined)
  Biofilm kill mix = 19

> COC(=O)C(=C/C=C/c1ccco1)C(=O)OC
  Biofilm kill mix = 12

Additional entries.
canonical_smiles | Biofilm kill mix
COc1ccc(S(=O)(=O)c2cnc3ccccc3n2)cc1 | 11
CCN(c1ccccc1)S(=O)(=O)c1cc(C(=O)Nc2ccc(F)c(F)c2)ccc1F | 8
COc1ccc(COc2cc(-c3cccc(OC)c3)nc3ccc(NC(=O)c4ccc(N(C)C)cc4)cc23)cc1 | 7
O=C(CCN1CCN(c2ccccc2)CC1)N/N=C/c1ccccc1O | 19
Oc1ccc(Cl)cc1C=Nc1ccc(Br)cc1 | 13
CCCC1Cc2[nH]c(=O)c(C#N)cc2CO1 (centres undefined) | 29
CCOC(=O)N1CCN(C(=O)c2ccccc2N(Cc2ccccc2)S(=O)(=O)c2ccc(OC)cc2)CC1 | 9
CC(C)N1CCC(N2CCN(C/C=C/c3ccccc3)CC2CCO)CC1 (centres undefined) | 19
O=C(O)CNC(=O)c1cccc(C(F)(F)F)c1 | 19
Cc1cc(NC(=O)c2cc([N+](=O)[O-])cc([N+](=O)[O-])c2)n(-c2ccccc2)n1 | 25
O=C(NNC(=O)c1ccc(Cl)cc1Cl)c1cnccn1 | 24
CCOC(=O)CC(=O)NC(C)(C)CCCCC(C)(C)NC(=O)CC(=O)OCC | 23
Cc1n[nH]c(=O)nc1N/N=C/c1ccco1 | 17
C(=N\Nc1ncnc2ccccc12)/c1ccccc1 | 14
CCn1c(CSc2nnc(-c3ccncc3)n2CCOC)nc2cc(C(=O)O)ccc21 | 11
CC(=O)O/N=C(/c1nonc1N)N1CCN(c2ccc([N+](=O)[O-])cc2Cl)CC1 | 7
C=CCNC(=S)NNC(=O)COc1ccc(Br)cc1 | 13
COc1ccc(NC(=O)C2CSC(C)(C)N2C=O)cc1 (centres undefined) | 10
CC(O)C(NS(=O)(=O)c1ccc(Cl)cc1)C(=O)OCC(=O)Nc1cccnc1Cl (centres undefined) | -11
CCN1/C(=N\N)c2cccc3cccc1c23 | -1
CC(CCc1ccccc1)NC(=O)CNC(=S)N(Cc1cccs1)C1CCCC1 (centres undefined) | 10
CN1/C(=C/C=C(C#N)C#N)C=Cc2ccccc21 | 22
Cc1nnc(SCC(=O)NCc2ccco2)n1-c1ccc(F)cc1 | 13
C=CCN=c1scc(C)n1/N=C/c1ccc(O)c(O)c1 | 10
CC1Cc2ccccc2N1c1ncnc2c1nnn2Cc1ccccc1Cl (centres undefined) | 13
CC(C)NC(=O)COC(=O)c1ccccc1C(=O)c1ccccc1 | 7
O=C1NCC(NC(=O)C(F)(F)F)c2cc3c(cc21)OCO3 (centres undefined) | 2
O=C(CSC(=S)N1CCCCC1)c1c(F)cccc1F | 1
Cc1ccc(-c2[nH]c3ccccc3c2SCCNC(=O)c2cc3ccccc3oc2=O)cc1 | 7
CCCS(=O)(=O)c1c(S(=O)(=O)CCC)c2c(C)cccn2c1C(N)=O | 6
COc1ccc(C(=O)NCC2CCCO2)cc1 (centres undefined) | 4
COc1ccc(C(=O)NNC(=O)CSc2nnc(-c3ccc(O)cc3)n2C)cc1 | 15
Cc1ccc(NC2=C(Cl)C(=O)OC2OC(=O)c2ccco2)c(C)c1 (centres undefined) | 21
CCOc1ccc(CCNC(=O)c2[nH]c(C)c(C(C)=O)c2CC)cc1OCC | 9
NS(=O)(=O)c1ccc(CCNC(=S)Nc2ccccc2)cc1 | -9
CSC1=NCCN1C(=O)c1ccc2ccccc2c1 | 13
CC(=O)N(c1cccc(C(F)(F)F)c1)c1nc(/C=C/C(=O)O)cs1 | 7
C/C(=N\OC(=O)c1c(-c2c(F)cccc2Cl)noc1C)c1nccs1 | 8
COc1ccc(/C=N/NC(=O)CNC(=O)c2cccs2)cc1 | 2
CN(c1ccccc1)S(=O)(=O)c1cccc(C(=O)Nc2ccc3c(c2)CCC3)c1 | 16
CNC(=O)CCSSCCC(=O)NC | 26
